StopGo reporter – lowers the luciferase signal of an FMDV 2A StopGo reporter. human cells with a luciferase reporter of 2A StopGo recoding; control for the full effect not named in the record. Potency, µM (titrated, usually from 57.9 µM), for the others: at the top dose signal change, negative = less light. 1.2% of 410,000 active; active = well fitted falling curve with a large enough effect; inconclusive = small, poorly fitted or top-dose-only effect; inactive = no such curve, though single readings can be large or run the other way; tested in HEK293T cells; also: % is scaled to controls: 0 for no effect and ±100 for the full control effect; nearly all actives have a fitted effect of over 45% in size; luciferase light after 4 h
SARS PLpro yeast – inhibitors of SARS-CoV papain-like protease in yeast; AID 485353; Potency, µM (highest dose often 32.9 µM), without a hit: at the highest dose activity, positive = growth rescue; 0.19% of 330,000 active; S. cerevisiae expressing SARS-CoV PLpro, growth rescue; control for the full effect not named in the record; also: 0% is about no effect; nearly all actives have a fitted effect of over 55% in size; growth read by luminescence after 48 h
Cruzain Triton – cruzain (T. cruzi) inhibition with detergent | P25779 | purified cruzain, Z-FR-AMC fluorescence, 0.01% Triton | Potency, µM, for the others: max response, negative = inhibition, hits mostly inhibitors | 0.43% of 200,000 active; active = well fitted curve in the direction sought with a large enough effect; inconclusive = small, poorly fitted or top-dose-only effect, or another doubt; inactive = no such curve, though single readings can be large; an effect the other way counts as inactive or inconclusive;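 also: plate controls were neutral wells for no effect and buffer without enzyme for full effect; nearly all actives have a fitted effect of over 40% in size; top concentration of the series not given in the record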
Target sequence (P25779 123-467 limits assumed): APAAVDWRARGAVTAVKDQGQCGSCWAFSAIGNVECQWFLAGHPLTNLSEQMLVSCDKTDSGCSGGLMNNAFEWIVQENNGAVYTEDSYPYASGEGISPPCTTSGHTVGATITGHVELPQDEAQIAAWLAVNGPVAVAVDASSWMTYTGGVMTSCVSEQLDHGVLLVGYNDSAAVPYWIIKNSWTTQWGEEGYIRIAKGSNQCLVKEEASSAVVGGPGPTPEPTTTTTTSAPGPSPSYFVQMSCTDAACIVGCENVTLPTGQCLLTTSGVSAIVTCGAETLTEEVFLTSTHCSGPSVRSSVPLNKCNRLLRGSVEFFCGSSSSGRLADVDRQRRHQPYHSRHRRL
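In this qHTS format, compounds are incubated with 1.5 nM cruzain for 15 min at room temperature before 2 uM Z-FR-AMC is added. Release of AMC is followed at 360/450 nm, and progress is taken as the 60 s fluorescence difference.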
Lassa entry inh – inhibitors of Lassa virus binding or cell entry; 1.2% of 300,000 active; Lassa virus pseudotype entry inhibition, cell reporter; control for the full effect not named in the record; Potency, µM (titrated, usually from 37.9 µM), for inactives: top-dose activity change, negative = inhibition, most hits filed as inhibitors; active means well fitted inhibition curve with a large enough effect; inconclusive means small, poorly fitted or top-dose-only effect, or effect the other way; inactive means flat fitted curve, though single readings scatter; tested in HEK293 cells; also: % is scaled to controls: 0 for no effect and ±100 for the full control effect; nearly all actives have a fitted effect of over 50% in size; luciferase read-out
MARV entry inh – inhibitors of Marburg virus binding or cell entry | Marburg virus pseudotyped entry inhibition, cell reporter; control for the full effect not named in the record; about a third of the inactives were read at about 46 µM | Potency, µM (top dose mostly 37.8 µM), without a hit: top-dose activity change, negative = inhibition, hits mostly inhibitors | 1.8% of 300,000 active; active = well fitted inhibition curve with a large enough effect; inconclusive = small, poorly fitted or top-dose-only effect, or effect the other way; inactive = flat fitted curve, though single readings scatter; tested in HEK293 cells; about a fifth of its hits are not listed in these tables; also: % is scaled to controls: 0 for no effect and ±100 for the full control effect; luciferase read-out
NS1 inh – influenza NS1 inhibition | S. cerevisiae slowed by influenza A NS1, growth recovery by OD600 | Potency, µM (titrated, usually from 46.1 µM), without a hit: top-dose activity, positive = more growth | 0.4% of 270,000 active | AID 2326; also: actives are rising curves; nearly all actives have a fitted effect of over 50% in size
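OD600 was taken as the measure of yeast growth restored by compound in an NS1-expressing S. cerevisiae strain. Cells had been washed out of glucose medium and diluted 1:100 into galactose -URA medium, pH 6.0.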
Cruzain noTriton – inhibitors of Trypanosoma cruzi cruzain without detergent | P25779 | purified cruzain, Z-FR-AMC fluorescence, no detergent | Potency, µM, for the others: max response, negative = inhibition, hits mostly inhibitors | 2.3% of 200,000 active; active = well fitted curve in the direction sought with a large enough effect; inconclusive = small, poorly fitted or top-dose-only effect, or another doubt; inactive = no such curve, though single readings can be large; an effect the other way counts as inactive or inconclusive;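 also: plate controls were enzyme without inhibitor for no effect and buffer without enzyme for full effect; nearly all actives have a fitted effect of over 40% in size; top concentration of the series not given in the record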
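Purified cruzain at 1.5 nM, pre-incubated 15 min with compound at room temperature in 100 mM sodium acetate pH 5.5, 5 mM DTT, 0.00005% Triton X-100. Reaction started with 2 uM Z-FR-AMC; AMC fluorescence increase over 60 s gives rate.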
RE007 growth inh – less growth of the S. pombe RE007 Vpr strain. S. pombe RE007 Vpr strain, BacTiter-Glo ATP luminescence, 24 h; control for the full effect not named in the record. Potency, µM (titrated, usually from 92.2 µM), for the others: at the top dose activity change, negative = less growth. 0.21% of 360,000 active. AID 651644; active = well fitted falling curve with a large enough effect; inconclusive = small, poorly fitted or top-dose-only effect; inactive = no such curve, though single readings can be large or run the other way;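 also: % is scaled to controls: 0 for no effect and ±100 for the full control effect; nearly all actives have a fitted effect of over 50% in size; the assay follows cell death caused by Vpr and the record does not say whether a fall means rescue or toxicity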
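Fission yeast strain RE007, carrying one chromosomally integrated HIV-1 vpr copy, was seeded at OD 0.01 in PMG+AL medium with 23 nL pinned compound. After 24 h at 30 °C and 99% humidity, viability was read by BacTiter-Glo luminescence.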
Active calls of the source: *; ? = inconclusive; / = no result given; & = joins results of further samples; [ ] = another dose, or the depositor's remark. Unless noted, calls follow the shape of the dose curve; as a rule, active means well fitted rising curve with a large enough effect; inconclusive means small, poorly fitted or top-dose-only effect; inactive means no such curve, though single readings can be large or run the other way. Potency is read from the fitted curve at half-maximal effect.

The line under a structure holds: StopGo reporter | SARS PLpro yeast | Cruzain Triton | Lassa entry inh | MARV entry inh | NS1 inh | Cruzain noTriton | RE007 growth inh
> C#CCOc1coc(COC(=O)c2ccccc2)cc1=O
    45.9%[activator] | 23.6% | / | 0.1% | 29.4% | 3.5% | / | 3.9%
> COc1cc2[nH]c(=O)n(CCCC(=O)NCc3ccccc3)c(=O)c2cc1OC
    13.7% | / | 6.7% | ? | ? | / | 4.6% | /
> CSc1ccccc1NC(=O)CN(C)C(=O)c1c(C)nn(Cc2ccccc2)c1C
    -15.0% | 1.5% | / | -15.1% | -10.6% | / | / | -25.6%
> CNC(=S)N(Cc1ccc2c(c1)OCO2)C1CC(=O)N(c2ccccc2)C1=O (centres undefined)
    -8.1% | 14.6% | -4.8% | -8.9% | -26.3% | -0.3% | 2.4% | 2.4%
> COc1ccc(N2CCN(CC(O)COc3ccc([N+](=O)[O-])cc3)CC2)cc1 (centres undefined)
    -7.3% | -8.9% | -3.0% | 2.5% | 0.2% | 1.3% | 0.2% | 9.1%
> O=C1CC(=O)Nc2cc(S(=O)(=O)N3CCOc4ccccc43)ccc2N1
    -21.3%&-7.8% | 0.5% | 0.8% | 23.6%[46.1 µM] | / | -9.3% | 10.9% | -7.6%
> Cc1cc(C(=O)OCC(=O)Nc2nc(-c3ccccc3)cs2)c(C)o1
    -18.3% | 4.8% | -0.7% | ? | -3.0% | -4.7% | ? | 3.7%
> CCOCCCNC(=O)C(c1ccc(OC)cc1)N(Cc1ccc2c(c1)OCO2)C(=O)c1ccccn1 (centres undefined)
    2.6% | 0.4% | / | ? | -21.1%[46.1 µM] | / | / | 9.5%
> COc1ccccc1OCCCCCc1c(C)n[nH]c1C
    ? | 4.6% | -0.9% | 0.1% | -19.2% | -177.0% | 5.6% | -2.2%
> O=C(NCCCN1CCCC1=O)c1cc(S(=O)(=O)N2CCN(c3ccccc3)CC2)ccc1Cl
    -3.8% | / | / | -2.7% | -9.8% | / | / | 8.8%
> Cc1[nH]c2ccc(C(=O)NCCCN(C)C3CCCCC3)cc2c1C
    -5.7% | 1.4% | / | 17.0%[46.1 µM] | ? | 16.8% | / | -1.1%
> Cc1ccc2c(c1)C(c1ccncc1)=NNC(c1ccc(F)cc1)=N2
    7.1% | -1.5% | / | 18.4% | -7.9%[46.1 µM] | / | / | -22.3%
> O=C(CNC1C(=O)Nc2ccccc21)Sc1ccccc1 (centres undefined)
    4.4% | 1.5% | -1.9% | 1.3% | 3.6% | 5.5% | -12.9% | -2.2%
> CCOC(=O)C1CCCC12Nc1cccc3cccc(c13)N2 (centres undefined)
    -15.5% | / | / | -18.2%[46.1 µM] | -23.8%[46.1 µM] | / | / | -17.8%
> CN(C)C(CNC(=S)Nc1ccccc1Cl)c1cccnc1 (centres undefined)
    -0.6% | 0.2% | / | 3.6% | -9.4%[46.1 µM] | / | / | -2.2%
> CN1C(=O)C(O)(CC(=O)c2cccc(-n3cccc3)c2)c2ccccc21 (centres undefined)
    71.5%[activator] | -18.7% | -3.7% | 4.2% | 12.3% | -9.5% | ? | -16.9%
> CC1CCN(S(=O)(=O)c2cn(CC(=O)Nc3ccc(F)c(Cl)c3)c(=O)c3ccccc23)CC1
    0.3% | / | -7.4% | ? | ? | / | -9.6% | /
> CC1CN(C(=O)COC(=O)c2nn(-c3ccccc3)c(=O)c3ccccc23)CC(C)O1 (centres undefined)
    -22.5% | 1.2% | / | / | / | -4.0% | / | 2.5%
> CCOc1cc(/C=N/Nc2nnc(C)n2N)ccc1O
    -19.3% | -6.7% | / | / | / | -2.2% | / | 7.0%
> Cc1ccc(C(=O)NC2(C(F)(F)F)C(=O)Nc3c2c(=O)[nH]c(=O)n3CCc2ccccc2)cc1 (centres undefined)
    11.1% | / | -1.0% | -4.5%[46.1 µM] | 5.3%[46.1 µM] | / | -9.1% | /
> Cc1nn(Cc2ccc(C(=O)N3CCOCC3)o2)c(C)c1Br
    -6.1% | 6.9% | -1.1% | -4.0% | 1.5% | 14.3% | -8.4% | -9.9%
> CCC(C)[C@H](NC(=O)Nc1cccc(Cl)c1)C(=O)O (some centres undefined)
    -12.5% | 8.4% | 4.1% | 7.5% | 2.3% | -3.5% | 8.0% | -4.1%
> COc1ccc(-n2nnnc2C2CCN(S(=O)(=O)c3cc(Cl)ccc3OC)CC2)cc1
    ? | / | -2.0% | -8.3%[46.1 µM] | ? | / | 11.2% | /
> Cc1cccc(C2c3[nH]c4ccccc4c3CCN2C(=O)Cc2n[nH]c(C)n2)n1 (centres undefined)
    -12.3% | -0.5% | / | 25.0%[46.1 µM] | 12.6%[46.1 µM] | -2.1% | / | 4.1%
> CSCC[C@H](NC(=O)OC(C)(C)C)c1nnc(SCC(=O)Nc2ccc(C)cc2C)o1
    -27.4% | -7.9% | -13.7% | -22.6% | 19.3% | -5.0% | 14.4% | 14.9%
> COc1cc(/C=C/C(=O)OCC(=O)NCCCc2ccccc2)cc(OC)c1OC
    -2.9% | 1.2% | / | -6.7% | -7.2% | / | / | -13.2%
> O=Cc1ccc(N2Cc3ccccc3C2)cc1
    12.8% | -6.7% | / | ? | 1.26µM* | -65.3% | / | 4.1%
> Cc1ccc(C(NC(=O)NN2CCN(C)CC2)C(Cl)Cl)cc1F (centres undefined)
    7.0% | 2.1% | / | 9.6%[46.1 µM] | -4.4%[46.1 µM] | -3.0% | / | -19.5%
> COc1cc(C(=O)O/N=C(\N)c2ccncc2)cc(OC)c1OC
    / | 3.3% | 2.8% | -23.6% | -2.1% | 8.1% | 1.6% | 7.1%
> COc1cccc(-c2nc(CS(=O)(=O)CC(=O)NCc3cccc(Cl)c3)c(C)o2)c1
    -6.4% | / | -2.8% | 1.6%[46.1 µM] | -19.0%[46.1 µM] | / | -12.3% | /
> O=S(=O)(N1CCOCC1)N1CCN(c2ccccc2F)CC1
    / | -3.9% | 2.8% | -8.2% | 11.8% | -20.1% | -16.2% | 2.6%
> COc1ccc(N2C(=O)CC(N(CCc3ccccc3)C(=O)c3ccccc3)C2=O)cc1 (centres undefined)
    16.9% | -2.2% | / | 10.7% | -24.5% | -8.6% | / | 1.6%
> CCN(C(=O)C1CCCN(c2nc(-c3ccc(OC)cc3)no2)C1)c1ccc(OC)cc1 (centres undefined)
    ? | -23.6% | / | / | / | -112.0% | / | 4.7%
> O=C(O)c1cccc2c1C(=O)N(c1ccccc1)C2
    -8.5% | 1.4% | / | 6.9%[46.1 µM] | ? | 0.4% | / | -1.4%
> Cc1c(C(=O)Nc2ccccc2)cnn1-c1ccccc1
    8.0% | / | / | ? | ? | / | / | -8.1%
> COn1c(-c2ccccc2)nc2c1CCc1nonc1-2
    0.0% | -0.3% | -10.2% | 1.2% | -6.2% | -13.8% | 2.8% | 4.4%
> O=C(CSc1nc2ccc(Cl)cc2[nH]1)Nc1ccc2c(c1)CCC2
    0.8% | -50.9% | -11.3% | 0.7% | 9.7% | -2.8% | -17.0% | 6.6%
> O=C(c1ccc(NC2=NC3CS(=O)(=O)CC3S2)cc1)N(CCO)Cc1ccccc1 (centres undefined)
    -3.2% | ? | / | / | / | -4.5% | / | -6.3%
> CCOC(=O)CNC(=O)CSc1nnc(-c2ccccc2OC)n1CC
    0.0% | 4.6% | 2.1% | 6.8% | ? | 4.1% | 0.0% | -4.8%
> Cn1c(CCc2ccccc2)nnc1SCC(=O)N1CCOCC1
    11.7% | 1.9% | -0.7% | 1.4% | -18.8% | 7.1% | 24.3% | -5.0%

Brought forward from above: three compounds, then new ones.
The line under a structure holds: StopGo reporter | SARS PLpro yeast | Cruzain Triton | Lassa entry inh | MARV entry inh | NS1 inh | Cruzain noTriton | RE007 growth inh
> O=C(c1ccc(NC2=NC3CS(=O)(=O)CC3S2)cc1)N(CCO)Cc1ccccc1 (centres undefined)
    -3.2% | ? | / | / | / | -4.5% | / | -6.3%
> CCOC(=O)CNC(=O)CSc1nnc(-c2ccccc2OC)n1CC
    0.0% | 4.6% | 2.1% | 6.8% | ? | 4.1% | 0.0% | -4.8%
> Cn1c(CCc2ccccc2)nnc1SCC(=O)N1CCOCC1
    11.7% | 1.9% | -0.7% | 1.4% | -18.8% | 7.1% | 24.3% | -5.0%
> CCC(=O)Nc1cccc(-c2cn3c(C)csc3n2)c1
    5.5% | / | -0.7% | -6.3%[46.1 µM] | / | / | 1.9% | /
> c1ccc(NCCC2OCC3(CO2)COC(CCNc2ccccc2)OC3)cc1 (centres undefined)
    -15.5% | / | / | 11.0%[46.1 µM] | 12.3%[46.1 µM] | / | / | 3.4%
> COc1ccc(C(=O)CC(=O)C(=O)Nc2ccc(Cl)cc2)cc1
    -21.2% | 1.3% | / | -12.0%[46.1 µM] | -22.8%[46.1 µM] | 1.6% | / | ?
> CN(C)S(=O)(=O)c1ccc(Cl)c(-c2nnc3n2CCCCC3)c1
    4.7% | -0.9% | / | 10.4%[46.1 µM] | 7.5%[46.1 µM] | / | / | -1.6%
> Cc1nc2ccccn2c1C(=O)CSc1ccccc1
    -6.8% | -2.7% | / | 13.4%[46.1 µM] | ? | / | / | -11.8%
> COc1ccc(NC(=S)N2CCCC(CO)C2)c(OC)c1 (centres undefined)
    12.2% | -0.5% | -1.8% | 6.8% | -13.7%[46.1 µM] | 16.9% | -22.2% | -0.8%
> COc1ccc(C)cc1S(=O)(=O)NC(C)c1cnn(-c2ccccn2)c1C (centres undefined)
    -1.4% | / | / | 0.0% | 14.8% | / | / | -2.1%
> O=[N+]([O-])c1ccc(C=Nc2cccc3ccccc23)s1
    -6.8% | -5.2% | / | ? | ? | -44.4% | / | 22.4µM*
